VDR inh: vitamin D3 receptor (human) inhibition; P11473; VDR-SRC2-3 peptide fluorescence polarization, 2 h; Potency, µM, for inactives: max response, negative = inhibition, usual class: inhibitors; 400,000 tested, 0.93% active; AID 504847; active means well fitted inhibition curve with a large enough effect; inconclusive means small, poorly fitted or top-dose-only effect, or another doubt; inactive means no such curve, though single readings can be large or run the other way; further: series mostly up to about 120 µM
Target sequence (P11473 whole entry, looked up): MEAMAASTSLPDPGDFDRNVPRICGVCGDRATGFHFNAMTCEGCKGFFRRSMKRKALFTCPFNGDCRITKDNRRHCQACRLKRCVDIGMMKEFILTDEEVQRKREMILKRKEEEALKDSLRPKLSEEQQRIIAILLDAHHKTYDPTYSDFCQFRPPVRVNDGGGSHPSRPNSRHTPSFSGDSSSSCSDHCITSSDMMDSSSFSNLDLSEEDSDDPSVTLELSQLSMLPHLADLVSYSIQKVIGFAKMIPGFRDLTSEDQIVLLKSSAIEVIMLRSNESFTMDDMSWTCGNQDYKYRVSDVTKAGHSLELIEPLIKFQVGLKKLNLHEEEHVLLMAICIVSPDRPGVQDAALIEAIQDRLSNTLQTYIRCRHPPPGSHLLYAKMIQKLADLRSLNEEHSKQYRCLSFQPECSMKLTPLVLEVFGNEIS
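Signal is fluorescence polarization, reporting how far test compounds block the interaction of VDR with the SRC2-3 coregulator peptide after a 2 h room-temperature incubation.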
* marks the source's active call; other numbers are inactive results; u = inconclusive; & = joins results of further samples; [ ] = another dose, or the depositor's remark. On the % scale 0 is the no-effect control and ±100 the full control effect; potency means the concentration at half of the fitted maximal effect.

SMILES | VDR inh
CCCCOC(=O)c1ccc(OC(=O)c2cccnc2)cc1 | -19.8%
Clc1cccc(NCc2nnc(SCc3ccccc3)o2)c1 | -0.1%
O=C(CNS(=O)(=O)c1cccs1)NCCc1ccc(Cl)cc1 | -6.7%
CC(C)(CNC(=O)CO/N=C1/C=C2CCC3C(C(O)C[C@@]4(C)C3CC[C@]4(O)C(=O)CO)[C@@]2(C)CC1)C(O)C(=O)O (some centres undefined) | -14.3%
COc1ccc(/C=C/C(=O)O)cc1S(=O)(=O)NC1CCS(=O)(=O)C1 (centres undefined) | -6.8%
Cc1cnc(CNc2ncnc3ccc(-c4ccc5c(c4)OCO5)cc23)cn1 | -6.3%
O=C(NCC(c1cccs1)N1CCOCC1)c1ccc(Br)o1 (centres undefined) | -16.0%
COCCOC(=O)C1=C(C)NC(=O)NC1c1cccc2ccccc12 (centres undefined) | 3.9%
Cc1cccc(N2CCN(C(=O)C3CCCN(S(=O)(=O)c4cccc5nsnc45)C3)CC2)c1C (centres undefined) | 9.3%
COc1cccc(C(=O)NCC(=O)NNc2ncnc(N)c2[N+](=O)[O-])c1 | 15.7%
CCOC(=O)c1cnc(SC)nc1Sc1ccccc1Cl | 7.7%
O=C1CCC2(CCCCC2)N1 | 13.2%
CC(C)NC(=O)c1ccccc1NC(=O)CS(=O)(=O)Cc1ccccc1 | -1.3%
COCC(=O)N1CCC2(CC1)CN(C(=O)Nc1cccc(F)c1)C2 | 2.9%
COc1ccc(Cl)cc1N(C)C(=O)C(=O)Nc1ccc2nc3n(c(=O)c2c1)CCCCC3 | 8.9%
COCCNC(=O)CCCn1c(=O)c2ccccc2n(Cc2ccccc2C#N)c1=O | 9.3%
COc1ccc(C(=O)OCc2cc3cccc(C)c3[nH]c2=O)cc1 | 13.8%
Cc1cc(SCC(=O)OC/C(O)=C(\C#N)c2nc3ccccc3[nH]2)c(C)cc1Br | -5.9%
COc1ccccc1-c1ccc(/C=N/O)o1 | -9.7%
Cc1nc2sc(C(c3ccc(F)cc3)N3CCOCC3)c(O)n2n1 (centres undefined) | 5.2%
COc1cc(S(=O)(=O)N2CCOCC2)ccc1NC(=O)COC(=O)C12CC3CC(CC(C3)C1)C2 | -0.8%
COC(=O)c1ccc2c(=O)n(CCCCCC(=O)N3CCN(c4cc(C)ccc4C)CC3)c(=O)[nH]c2c1 | 14.0%
CCOc1cccc(N2C(=O)CC(NCc3ccc(S(N)(=O)=O)cc3)C2=O)c1 (centres undefined) | 16.4%
CN1C(=O)C2(c3ccccc31)c1c(oc3ccccc3c1=O)C(=O)N2CCO (centres undefined) | -16.2%
Cn1cccc1C(=O)NC(=O)COC(=O)Cc1coc2ccc3ccccc3c12 | 13.3%
CCOC(=O)NC(Cc1c[nH]c2ccccc12)C(=O)NCCc1ccc(S(N)(=O)=O)cc1 (centres undefined) | -15.2%
C[C@@H]1CN([C@H](C)CO)C(=O)c2cc(NC(=O)Nc3ccc4c(c3)OCO4)ccc2O[C@H]1CN(C)Cc1ccncc1 | 1.2%
CCOC(=O)c1cc(-c2ccccc2)sc1NC(=O)CC | u
Cc1onc(C(=O)Nc2sc3c(c2C(N)=O)CCCC3)c1[N+](=O)[O-] | 79.4µM*
O=C(CSc1ccc2nnc(-c3ccccn3)n2n1)N1CCN(c2ccccc2)CC1 | -16.5%
Cc1ccc(S(=O)(=O)Oc2ccc(/C=C(/NC(=O)c3ccccc3)C(=O)NCCCC(=O)O)cc2)cc1 | -11.9%
Cc1ccc(C(=O)N2CCCC(Nc3ccc(C)c(C)c3)C2)c(=O)[nH]1 (centres undefined) | -13.9%
COc1ccc(OC)c(NC(=O)Cn2cc(C=O)c3ccccc32)c1 | 1.9%
Cc1ccc(N2C(=O)C3C(C2=O)N2C(c4cccs4)C4C(=O)N(c5ccc(C)cc5)C(=O)C4N2C3c2cccs2)cc1 (centres undefined) | -10.9%
COc1ccc(C(=O)N/N=C/c2cc(Br)ccc2O)cc1OC | 16.2%
O=C(CCN1CCCCO1)N1CCCC(Nc2cccc(F)c2)C1 (centres undefined) | 1.5%
Cn1cnc([N+](=O)[O-])c1Sc1ncn[nH]1 | -21.5%
Cc1cccc(C)c1OCc1nc2c3cnn(-c4ccccc4Br)c3ncn2n1 | -5.7%
Cc1cc(-c2ccc(C)c(S(=O)(=O)N3CCN(c4ccccn4)CC3)c2)on1 | 12.0%
CCOc1ccc(N2Cc3ncccc3C2=O)cc1 | -6.8%
Cc1ccc(/C(N)=N/OC(=O)C(C)c2ccc([N+](=O)[O-])cc2)cc1 (centres undefined) | -16.8%
COc1ccc(NC(=O)CN2CCC(Cc3ccccc3)CC2)cc1S(=O)(=O)N1CCOCC1 | -2.5%
O=C(Cn1cc(C(=O)c2cccs2)c2ccccc21)Nc1ccc(Br)cc1 | -20.3%
Cc1ccc(-n2nnnc2SCC(=O)Nc2sc(C)c(C)c2C#N)cc1C | 11.1%
CC(=O)Nn1cnc2c(c1=O)C1(CCCCC1)Cc1ccccc1-2 | 10.4%

4 entries from above in another layout:
Cc1ccc(S(=O)(=O)Oc2ccc(/C=C(/NC(=O)c3ccccc3)C(=O)NCCCC(=O)O)cc2)cc1
  VDR inh = -11.9%
Cc1ccc(C(=O)N2CCCC(Nc3ccc(C)c(C)c3)C2)c(=O)[nH]1 (centres undefined)
  VDR inh = -13.9%
COc1ccc(OC)c(NC(=O)Cn2cc(C=O)c3ccccc32)c1
  VDR inh = 1.9%
Cc1ccc(N2C(=O)C3C(C2=O)N2C(c4cccs4)C4C(=O)N(c5ccc(C)cc5)C(=O)C4N2C3c2cccs2)cc1 (centres undefined)
  VDR inh = -10.9%

Carrying on.
SMILES | VDR inh
COc1ccc([N+](=O)[O-])cc1NS(=O)(=O)c1ccc(C(=O)N2CCCC2)cc1 | -15.5%
CC1CC1C(=O)OCC(=O)Nc1ccc(N=Nc2ccccc2)cc1 (centres undefined) | -6.1%
Nc1ccc(-c2ccc3ccccc3n2)cc1 | 1.9%&13.8%
CCOc1ccc(N(C)C(=O)CCc2nnc3ccc(N4CCCCC4)nn23)cc1 | -10.9%
O=C(Cc1ccccc1Cl)NNC(=O)Nc1ccccc1 | -6.6%
c1ccc(-c2noc(C34CC5CC(CC(C5)C3)C4)n2)cc1 | -9.9%
COc1ccc(NC(=O)c2ccc(NC(=O)COC(=O)CC(NC(=O)c3ccccc3Cl)c3ccccc3)cc2)cc1 (centres undefined) | -10.3%
O=c1[nH]c2ccc(S(=O)(=O)N3CCN(c4ccccc4F)CC3)cc2s1 | 16.7%
COc1ccc(NS(=O)(=O)c2cc(NC(=O)c3cccc(OCc4c(C)noc4C)c3)ccc2OC)cc1 | 5.7%
CCCn1nc(NC(=O)COC)c2cc3cc(C)ccc3nc21 | 40.7%[activator]
Cc1c(Cl)cccc1NC(=O)CCN1CCCC(C)C1 (centres undefined) | -7.5%
S=C(NCc1ccccc1Cl)Nc1ccccc1Cl | 1.9%
CC1CCCCN1CCCNC(=O)Cn1ncc2c3ccccc3n(Cc3ccccc3)c2c1=O (centres undefined) | 15.5%
O=C(c1ccccc1)c1ccncc1 | 28.2%
CCn1c(SCC(=O)Nc2nc(C)cs2)nnc1-c1ccco1 | -5.7%
CC(=O)Nc1ccccc1C(=O)C(=O)Nc1ccc(F)cc1 | 8.7%
Cc1ccc(NC(=O)c2cccc(NC(=O)/C=C/c3ccco3)c2)cc1C | 12.7%
Cc1ccc(S(=O)(=O)N(C)C)cc1NC(=O)COC(=O)COc1ccccc1[N+](=O)[O-] | -16.4%
COc1ccc(NCCNc2ccc(OC)cc2)cc1 | 27.8%
S=C(NCCc1ccccc1)NN=C1CCCCCC1 | -3.6%
CCOc1ccccc1CNC(=O)Cn1c(-c2ccccc2)cc(C(C)=O)c1C | 10.4%
COc1cc(C(C(=O)NC(C)(C)C)N(C(=O)CNC(=O)c2cccs2)c2ccccc2)cc(OC)c1OC (centres undefined) | -14.5%
CCCCCCc1nnc(NC(=O)OCC)s1 | 8.4%
O=C(c1ccco1)N1CCN(c2ccc(Cl)cc2)CC1 | -6.1%
COCc1c(C(=O)N2CCN(Cc3ccc(C#N)cc3)CC2)oc2ccccc12 | -0.1%
CCN(CC)S(=O)(=O)c1ccc(C(=O)N2CCN(C3=NS(=O)(=O)c4ccccc43)CC2)cc1 | -1.7%
Cc1cc(=O)oc2c(C)c(OCC(=O)NCCCN3CCOCC3)ccc12 | 19.9%
Cc1ccc(N(O)C(=O)OCCNC(=O)Nc2ccccc2)cc1 | 2.3%
COc1ccc(N(C)S(=O)(=O)c2ccc(C)cc2)c([N+](=O)[O-])c1 | 11.0%
COc1ccc(S(=O)(=O)NCCc2sc3nc(-c4ccc(C)cc4)nn3c2C)cc1F | -1.6%
Cc1nnc(SCc2cc(=O)oc3cc(O)ccc23)n1Cc1ccccc1 | -5.0%
NC(=O)C[C@@H]1NC(=O)CNC(=O)c2cc([N+](=O)[O-])cc(I)c2NCCC(C(N)=O)NC1=O (some centres undefined) | -0.2%
CCN(CC)CCN1C2=C(C(=O)CC(C)(C)C2)C(c2cccc(F)c2)C2=C1CC(C)(C)CC2=O | 3.4%
Cc1ccc2c(=O)cc(C(=O)Nc3ccc(S(=O)(=O)N4CCCCCC4)cc3)oc2c1 | -7.3%
NC(=O)c1ccccc1N/C=C/C(=O)c1ccco1 | -10.8%
CCNC(=S)N(CCCO)Cc1cc2cc3c(cc2[nH]c1=O)OCCO3 | 16.6%
Cc1ccc(NS(=O)(=O)c2cccc(C(=O)NC3CCN(Cc4ccccc4)CC3)c2)cc1 | -6.5%
O=C(COc1ccccc1Cl)Nc1ccc2nc(SCC(=O)N3CCCC3)sc2c1 | 8.1%
COC(=O)c1c(NC(=O)c2nc3ccccc3s2)sc2c1CCN(C(C)=O)C2 | -16.9%
Cc1nnc(NN)n(N)c1=O | -7.7%
O=C(CCC(=O)Nc1ccccc1)N/N=C/c1cccnc1 | 29.8%
CC(C)c1ccc(-c2csc3ncnc(N4CCN(C)CC4)c23)cc1 | -6.0%
Cc1cc(Cl)ccc1NC(=O)CN1C(=O)NC2(CCCc3ccccc32)C1=O (centres undefined) | -8.8%
CC(C)CN1CCN(Cc2cccn2-c2cccnc2)CC1CCO (centres undefined) | -21.3%
Cn1nccc1NC(=O)Nc1ccccc1 | 2.6%
CC1CCN(C(=O)c2[nH]cnc2C(=O)N2CCN(c3ccccc3)CC2)CC1 | -2.1%
COc1ccc2c(c1)c1c(c(=O)n(CCc3ccccc3)c(=O)n1Cc1cccc(C)c1)n2C | 2.5%
O=C(NCC1CCCO1)c1ccccc1OCc1ccc(Cl)cc1 (centres undefined) | -18.0%
CCOc1ccc2[nH]cc(C(=O)NCCc3ccccc3)c(=O)c2c1 | -26.8%
CC(=O)NCC(=O)NNC1CC(=O)N(c2cccc(Cl)c2)C1=O (centres undefined) | 8.7%
Cn1c(SCC(=O)Nc2ccccc2)nnc1C(F)(F)F | 11.0%
CCOc1ccc2c(c1)sc(N)[n+]2Cc1cc(C)cc2cccnc12 | -7.2%
COc1ccc(Cl)cc1NC(=O)N1CCN(c2ccccc2OC)CC1 | -18.9%
COc1ccc(CN2CCNC(=O)C2CC(=O)NC2CCCC2)c(C)c1C (centres undefined) | u
Cc1cccc(OCCCC(=O)NCC(=O)Nc2cccc(C)c2C)c1 | 24.7%
C#CCOCCOCCOCCNc1nc(N2CCN(C(=O)C([C@@H](C)CC)n3cc(C(N)CC(C)C)nn3)CC2)nc(N2CCN(C(=O)[C@H](CCC(=O)O)n3cc(C(N)[C@H](C)CC)nn3)CC2)n1 (some centres undefined) | 12.4%
COc1ccc(C(=O)NC2CCN(S(=O)(=O)c3ccccc3F)CC2)cc1 | 5.2%
N#CC1=C(N)C(C#N)(C#N)C(c2ccc[nH]2)C2CCCC=C12 (centres undefined) | -32.2%
C/C(N)=C(/C#N)C(=O)CSc1nnc(Nc2ccccc2)s1 | 24.5%
OCC1(Cc2ccccc2)CCCN(Cc2cnn(-c3ccccc3)c2)C1 (centres undefined) | 8.7%
Remaining list, next part
SMILES | VDR inh
CCCCn1c(=NC(=O)c2ccco2)c(C(=O)OCC)cc2c(=O)n3cccc(C)c3nc21 | -20.2%
N#C/C(=C\N1CCCCC1)S(=O)(=O)c1ccc(Cl)cc1 | 7.7%
CC(C)N(C(=O)c1ccc(C(=O)Nc2ccc([N+](=O)[O-])cc2)cc1)C(C)C | -2.7%
NNC(=S)Nc1c(Br)cc(F)cc1Br | 4.5%
Fc1ccc(-n2ncc3c(NC4CCCCCC4)ncnc32)cc1 | 10.5%
COc1ccccc1CCC(=O)NNC(=O)c1cccs1 | u
COc1ccc(/C=C2\SC(=S)N(CC(=O)OCC(=O)Nc3ccc([N+](=O)[O-])cc3OC)C2=O)cc1 | -1.9%
COc1cc(/C=N/n2nnnc2Nc2ccccc2)cc(OC)c1OC | -10.3%
Cc1ccc(S(=O)(=O)N2CCN(C(=O)COC(=O)c3nc(Cl)ccc3Cl)CC2)c(C)c1 | -4.6%
CCCOc1ccc(C2C(=O)N(C3CCCCCC3)CC(=O)N2CCC2=CCCCC2)cc1OC (centres undefined) | -5.9%
O=C(O)/C=C/C(=O)Nc1ccccc1-c1ccccc1NC(=O)/C=C/C(=O)O | -9.4%
COc1ccc(CC(=O)NCC2(c3ccc(OC)c(OC)c3)CCOCC2)cc1 | -3.9%
O=S(=O)(NCCN1CCOCC1)c1cc(Cl)ccc1Cl | 0.7%
Cc1n[nH]c(C)c1S(=O)(=O)N1CCN(c2ccccn2)CC1 | 22.1%
COc1ccc(S(=O)(=O)N2CCC(C(=O)Nc3ccccc3)CC2)cc1OC | 0.1%
O=S(=O)(c1ccc(Cl)cc1)N1CCN(S(=O)(=O)N2CCCCCC2)CC1 | 15.3%

Reformatted as a markdown table: part of the list above.
| Compound | VDR inh |
| --- | --- |
| COc1ccc(/C=C2\SC(=S)N(CC(=O)OCC(=O)Nc3ccc([N+](=O)[O-])cc3OC)C2=O)cc1 | -1.9% |
| O=S(=O)(c1ccc(Cl)cc1)N1CCN(S(=O)(=O)N2CCCCCC2)CC1 | 15.3% |

Compound activity: PubChem, National Center for Advancing Translational Sciences (NCATS)

Not all compounds are listed; rates above refer to the full screens.
